# High-throughput results: PubChem, Broad Institute
# Tg IFNy HTS: T. gondii growth inhibition with IFN-gamma, primary screen, cell-based; Toxoplasma gondii growth in IFN-gamma-treated host cells; hits give low values; reference of the scale not given here; activity change, negative = inhibition, %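 (about 20 µM by stock and volumes)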; hit rate 3.8% among 69,000; AID 1259416, 2018;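 active means below -70%; inconclusive means fit judged invalid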;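 further: host cells are HeLa cells infected with Toxoplasma gondii; parasite growth read as luciferase light; one replicate is shown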
# Numbers without * were called inactive; ? = inconclusive; & = joins results of further samples. Some of the compounds tested. The share of hits here may be higher or lower than overall.
SMILES,Tg IFNy HTS
Cc1oc(-c2ccc(Cl)cc2)nc1Cn1ccn2nc(-c3ccc4c(c3)OCO4)cc2c1=O,9
C[C@H](NC(=O)C[C@@H]1C=C[C@@H](NC(=O)c2cccnc2)[C@@H](CO)O1)c1ccccc1,-26
O=C(c1ccc(-c2cn[nH]c2)nc1)N1CCCN(C2CCCCC2)CC1,-43
CN1CCN(Cc2ccc(-c3ccc(-c4ccn[nH]4)cc3)nc2)CC1,53
CC(C)CC#Cc1ccc([C@H]2[C@H]3CN(C(=O)Nc4ccccc4)CCCCN3[C@H]2CO)cc1,2
Cc1noc(C)c1NC(=O)N(C)C[C@H]1OCc2cn(nn2)CCCC(=O)N([C@@H](C)CO)C[C@@H]1C,221
O=S(=O)(c1ccccc1)N1CCC2(CN(Cc3ccccc3F)C2)C1,-3
CCn1cnnc1CCNC(=O)C1CC2(CCNCC2)CN1 (stereo not given),4
Cc1nc(CCNC(=O)[C@H]2CCCN2C(=O)c2ccc(F)cc2)cs1,-8
Cc1noc(C)c1S(=O)(=O)Nc1ccc2c(c1)CC(=O)N([C@H](C)CO)C[C@@H](C)[C@H](CN(C)Cc1ccc(Oc3ccccc3)cc1)O2,43
CS(=O)(=O)N1CC[C@@]2(C[C@H](OCCN3CCCC3)CO2)C1,0
COc1cc(OC)cc(C(C)=O)c1,-1
CC1C(=O)N(C)CCN1C(=O)c1ccccc1-c1ccccc1 (stereo not given),-29
CN(C)C(=O)C1(Cc2ccc(-c3cccnc3)cc2)CCN(C(=O)c2n[nH]c(=O)[nH]2)C1 (stereo not given),-8
C=CCOC1CC2(CCN(C(=O)c3cnc(C)cn3)CC2)C1,-9
Cc1ccncc1-c1ccc(-c2ccn[nH]2)cc1,67
C[C@@H]1CN([C@@H](C)CO)C(=O)c2ccccc2-c2ccccc2CO[C@H]1CN(C)C(=O)[C@H]1CCCN1C,6
Cc1ccc(OCC(=O)NCCc2csc(-c3cccc(F)c3)n2)cc1,-14
Cc1nc(NC(=O)CSc2nc3ccccc3n2CC(=O)N2CCCCC2)sc1C,-28
CCc1ncc2c(n1)CN(C(=O)CC1CC(C)(C)NC(C)(C)C1)C2,2
CC(=O)NCCc1csc(C2CCN(C(=O)NCc3ccc(C)cc3)CC2)n1,19
COc1ccccc1S(=O)(=O)N(C)C[C@@H]1OCc2ccccc2-c2ccccc2C(=O)N([C@@H](C)CO)C[C@H]1C,-39
C[C@@H]1CN([C@@H](C)CO)C(=O)c2cc(NS(=O)(=O)c3cn(C)cn3)ccc2O[C@H]1CN(C)S(=O)(=O)c1ccc(F)cc1,7
O=C(Nc1cccc(Cl)c1)c1c(O)c2cccnc2n(-c2cccc(F)c2)c1=O,-32

# In the list so far, 5 contain fluorine:
SMILES,Tg IFNy HTS
O=S(=O)(c1ccccc1)N1CCC2(CN(Cc3ccccc3F)C2)C1,-3
Cc1nc(CCNC(=O)[C@H]2CCCN2C(=O)c2ccc(F)cc2)cs1,-8
Cc1ccc(OCC(=O)NCCc2csc(-c3cccc(F)c3)n2)cc1,-14
C[C@@H]1CN([C@@H](C)CO)C(=O)c2cc(NS(=O)(=O)c3cn(C)cn3)ccc2O[C@H]1CN(C)S(=O)(=O)c1ccc(F)cc1,7
O=C(Nc1cccc(Cl)c1)c1c(O)c2cccnc2n(-c2cccc(F)c2)c1=O,-32

# Other entries:
SMILES,Tg IFNy HTS
CS(=O)(=O)Cc1nnc2n1CCN(Cc1ccccn1)C2,-1
CCS(=O)(=O)N1CC2(CN(Cc3ccccc3F)[C@H](CO)c3[nH]c4cc(OC)ccc4c32)C1,-53
C[C@H]1CN([C@@H](C)CO)C(=O)c2ccccc2-c2ccccc2CO[C@@H]1CN(C)C(=O)[C@@H]1CCCN1C,31
CC1=C(C(=O)NCc2cccc(F)c2)C2(CCN(S(C)(=O)=O)CC2)OC1=O,27
Cc1ccc(CN2C[C@@H]3OCC[C@@H]3[C@@H](C(=O)N3CCCC3)C2)s1,30
CN(C)CCN1CC2(CCN(C(=O)c3cnccn3)CC2)OCC1=O,-1
COc1ccc(OC(=O)NCCc2ccccc2)cc1,83
N#Cc1nccnc1Oc1cccc(C(F)(F)F)c1,-19
O=C(c1ccccc1NCc1cccs1)N1C[C@H]2CC[C@H]1C2,26
Cc1ccc(S(=O)(=O)Nc2ccc3c(c2)C(=O)N([C@H](C)CO)C[C@@H](C)[C@H](CN(C)Cc2ccc(C(F)(F)F)cc2)O3)cc1,-20
O=C(C[C@@H]1CC[C@@H](NS(=O)(=O)c2ccc(F)cc2)[C@@H](CO)O1)N1CCN(c2ccccc2)CC1,-36
N[C@@H](CS(=O)O)C(=O)O,11
CC1CCN(c2nc3c(c(=O)[nH]c(=O)n3C)n2CCSc2nc3ccccc3o2)CC1,-67
O=S(=O)(Oc1cccc(C(F)(F)F)c1)c1cc(S(=O)(=O)c2ccccc2)cs1,-67
Cc1ccc(CN2C[C@@H]3C(CC(=O)NCc4ccco4)[C@@H]3C2)o1 (stereo not given in full),-39
c1ccc(O[C@@H]2CC[C@@H]3[C@H]2OCCN3c2ncccn2)nc1,-22
CCCC(C)NC(=O)c1ccc(Cl)c(Cl)c1 (stereo not given),-9
CCCc1cc(C2CCCCCN2C(=O)c2ccco2)no1 (stereo not given),41
COc1ccc2c3c([nH]c2c1)[C@@H](CO)N(C(=O)Nc1ccc(F)cc1)CC31CN(Cc2cc(-c3ccccc3)on2)C1,18
Cc1ccc(Oc2ncccc2CNC(=O)c2cc3ccccc3[nH]2)cn1,29
Cc1nc2cc(-c3ccn[nH]3)ccc2s1,105
CC(NC(=O)CCn1ccnc1-c1ccccc1)c1nc2ccccc2s1 (stereo not given),-3
O=C(NCCc1csc(-c2cccc(F)c2)n1)C(=O)Nc1ccc(F)cc1F,22
COc1ccc(S(=O)(=O)CCNC(=O)c2cc3cc(C)cc(C)c3nc2C)cc1,16
CCOc1ccc(CC2CCC(=O)NC2=O)cc1 (stereo not given),41
CCc1ccc(CN2CCC3C2CC(=O)N3CCN2CCOCC2)o1 (stereo not given),-48
O=C(Nc1ccc2c(c1)OCO2)c1cc(-c2ccccc2)oc1C(F)(F)F,15
CSc1ccc(C2c3[nH]c4ccccc4c3CCN2C(=O)c2ccc(F)cc2)cc1 (stereo not given),-42
O=C(c1cccs1)N1C[C@@H]2COC[C@@]2(COc2cccnc2)C1,-9
Cc1cccc(NC(=O)C2CC(=O)OC23CCCCC3)c1 (stereo not given),-59
Cn1nnnc1SCC(=O)N=C1NC(=O)CS1,7
C[C@@H]1CCCCO[C@@H](CN(C)C(=O)Cc2ccccc2)[C@@H](C)CN([C@@H](C)CO)C(=O)c2cc(NS(C)(=O)=O)ccc2O1,224
Cc1nc(-c2ccccc2)[nH]c(=O)c1CC(=O)NC(C)Cc1ccccn1 (stereo not given),-1
CO[C@H](CN(C)S(=O)(=O)c1ccc(F)cc1)[C@H](C)CN(Cc1ccccc1Cl)[C@H](C)CO,4
CN1CCN(Cc2ccccc2)C2(CCN(S(=O)(=O)N(C)C)CC2)C1=O,6
CN(Cc1ccco1)C[C@H]1OC[C@H]2CCN(Cc3ccsc3)C[C@H]21,23
CCN1CCC2(CC1)OC(=O)C(C)=C2C(=O)Nc1ccc(Cl)cc1,91
COc1ccc(NC(=O)c2sc3ccccc3c2C2CCN(C(C)=O)C2)cc1 (stereo not given),21
CN1C(=O)c2cc(NC(=O)Nc3ccccc3F)ccc2OC[C@@H]2O[C@H](CC(=O)NCCc3ccncc3)CC[C@H]21,14
Nc1cnc(-c2cc3ccccc3o2)cn1,185
Cc1ccc(C)c(NC(=O)N2CCN(Cc3nc(-c4ccccc4C)oc3C)CC2)c1,0
CC(C)CNC(=O)[C@H]1C[C@H]2CN(Cc3ccc(Cl)cc3)C[C@H]1O2,20
CC(CO)CN(Cc1ccccc1)CC1CC1 (stereo not given),2
Cn1cc(CN2CCOC3(COCCN(S(C)(=O)=O)C3)C2)cn1 (stereo not given),3
COc1ccc(-c2nc3c(s2)CN(C(=O)Nc2ccc(C)c(C)c2)CC3)cc1,-95*
CNC(=O)[C@H](Cc1ccccc1)NC(=O)[C@H](CC(C)C)[C@H](CSc1cccs1)C(=O)NO,-4&-46
CCCC(=O)N1CCC2(CC1)CN(Cc1ccccc1)C2=O,0
O=C(c1cc2c(c(-c3cccc(Br)c3)n1)[C@@H](CCO)NC2)N1CCCCC1,-15
Cc1nc2c(c(N3CCC(C(O)CCc4ccccc4)CC3)n1)CNC2 (stereo not given),-2
NS(=O)(=O)c1cccc2c1c([N+](=O)[O-])cc1[nH]c(=O)c(=O)[nH]c12,4&7&6
CCCN(C(=O)c1ccc(OC)cc1)C1(C(=O)NCc2ccccc2)CCN(C(C)=O)CC1,55
COCc1ncn2c1CN(C(=O)c1cc(C)oc1C)CC2,478
CCN1CC2(CCC1=O)CCN(C(=O)C1CCOCC1)CC2,1
NC(=O)N1CCC2(CC1)CN(c1ncccn1)Cc1ccccc12,-14
CC(C)Cc1ncc2c(n1)CN(C(=O)CC1C=CS(=O)(=O)C1)C2 (stereo not given),?
Cc1oc(C2CCN(C(=O)Nc3ccc(Cl)cc3F)CC2)nc1C(=O)N1CCCCC1,57
Cc1cccc(OCCCN2CCN(C(=O)c3ccc(C)n(C)c3=O)CC2)c1C,10
CC(C)N1Cc2ccnn2CC(COCc2cccnc2)C1 (stereo not given),-3
c1ccc(C(c2ccccc2)N2CCN(c3nnnn3-c3ccccc3)CC2)cc1,-14
Cc1ccc(-n2cccc2)c(NC(=O)C(c2ccccc2)C2CCCC2)c1 (stereo not given),-60

# A portion of the results above, for reference:
SMILES,Tg IFNy HTS
Cc1oc(C2CCN(C(=O)Nc3ccc(Cl)cc3F)CC2)nc1C(=O)N1CCCCC1,57
Cc1cccc(OCCCN2CCN(C(=O)c3ccc(C)n(C)c3=O)CC2)c1C,10
CC(C)N1Cc2ccnn2CC(COCc2cccnc2)C1 (stereo not given),-3
c1ccc(C(c2ccccc2)N2CCN(c3nnnn3-c3ccccc3)CC2)cc1,-14
Cc1ccc(-n2cccc2)c(NC(=O)C(c2ccccc2)C2CCCC2)c1 (stereo not given),-60

# The list goes on:
SMILES,Tg IFNy HTS
COc1cccc(C(=O)Nc2ccc3c(c2)C(=O)N(C)[C@H]2CC[C@H](CC(=O)NCc4ccc(F)cc4)O[C@@H]2CO3)c1,-17
Cc1c(C(=O)NCCCN2CCCCC2)oc2ccc3c(c12)C(O)CC1(CCCCC1)O3 (stereo not given),-67
O=C(C1CC1)N1C[C@H]2[C@@H](c3ccccc31)[C@@H](CO)N2C(=O)c1ccccc1,6
CC(=O)N1CCC2(CC1)OC(=O)C(C)=C2C(=O)NCCCN1CCCCC1,17
O=C(c1cccs1)n1ccc(-c2ccc3c(c2)CCO3)n1,-47
CN(Cc1ccc2nsnc2c1)C(=O)CC1COCCN1 (stereo not given),10
CC(O)(COc1ccccc1)c1ccc2c(c1)CN(Cc1cccn1-c1ccccn1)CCO2 (stereo not given),1
C=CCN1C[C@H]2CN(Cc3nccs3)CCC[C@@]2(C(=O)OCC)C1,-17
Cc1ccc(CS(=O)(=O)N2CCC3(CC(=O)N(c4ccccc4)C3)C2)cc1 (stereo not given),-5
COc1ccc2c(c1)c(CN(C)Cc1n[nH]c3c1CCCC3)cn2C(C)C,17
CC(=O)N1[C@H](CO)[C@H](c2ccccc2)[C@H]1CN(C(=O)c1ccccc1F)C(C)C,15
Cc1ccc(C(=O)Nc2ccc3c(c2)CCC(=O)N3)s1,-11
NC(=O)c1cc2c(s1)CCN(Cc1cc3n(n1)CCCNC3)C2,-41
COc1cccc(-c2ccc(C(=O)Nc3nc(C(C)C)cs3)c(=O)[nH]2)c1,14
Cc1cccnc1[C@]1(O)CC[C@H]2CN(Cc3c(C)nc4sccn34)C[C@H]21,-21
Cc1cccc(COCC2CC3OCCN(Cc4ccc(C)o4)C3C2)n1 (stereo not given),86
COc1ccc(-c2nc(CSc3nc4c(=O)[nH]c(C)nc4n3C)c(C)o2)c(OC)c1,-12
O=C1CCC(C(=O)N2CCc3[nH]nc(-c4cccc5ccccc45)c3C2)CN1 (stereo not given),2
O=C(NC1CC1)c1cc2n(n1)CCCN(C(=O)c1cnn3ccccc13)C2,2
O=C1CCN(C(=O)c2coc(COc3cccc(F)c3)n2)CCN1,-1
CCCCN(C)C(=O)c1ncn2c(C3CCN(C(C)=O)CC3)ccnc12,-4
CCNC(=O)c1ccccc1OCc1nc(-c2ccc3c(c2)OCO3)no1,-30
COc1ccccc1C#Cc1ccc2c(c1)[C@@H]1NCC[C@@H]1[C@H](CO)N2,3
O=C(NCC1COc2ccccc2O1)c1cc(Cl)sc1Cl (stereo not given),-49

# Single entries from the results shown:
# O=C1CCN(C(=O)c2coc(COc3cccc(F)c3)n2)CCN1 in Tg IFNy HTS shows -1
# NC(=O)c1cc2c(s1)CCN(Cc1cc3n(n1)CCCNC3)C2 in Tg IFNy HTS shows -41

# (next part)
SMILES,Tg IFNy HTS
COc1ccc2c3c([nH]c2c1)[C@@H](CO)N(C(C)=O)CC31CCN(C(C)=O)CC1,-26
Cc1sc(NC(=O)CN(Cc2ccc(F)cc2)C(=O)c2ccncc2)c(C(N)=O)c1C,-69
O=c1oc(-c2ccccc2)nc2ccc(Cl)cc12,20
COc1ccc(C2N3CC4(C)CN2CC(C)(C3)C4)cc1OC (stereo not given),29
O=C(NC[C@H]1[C@H](c2ccccc2)[C@@H](CO)N1C(=O)Cc1ccncc1)C1CCC1,2
CC(C)[C@H](C(=O)Nc1ccc(C(=O)NO)cc1)c1ccccc1,-83*
CN1C(=O)COc2ccc(NC(=O)CN3C(=O)N(C)C4(CCCCC4)C3=O)cc21,6
CN(CCCc1cnn(C)c1)C(=O)c1ccc2ccccc2n1,-26
Cc1cccc(NC(=O)NCC(c2cccnc2)c2c[nH]c3ccccc23)c1C (stereo not given),42
Cc1ncsc1CCC(=O)N(Cc1nccn1C)C1CC1,3
CCc1ccc(NC(=O)N2C[C@@H]3C[C@H](C(=O)N4CCOCC4)[C@@H](C2)O3)cc1,2
CCN(Cc1ccncc1)C(=O)CSCc1ccccc1Cl,65
O=C(c1ccc(Cl)cc1)n1ccc(-c2ccc(C#Cc3ccccc3)cc2)n1,99
